# Screens deposited in PubChem BioAssay by National Center for Advancing Translational Sciences (NCATS).
# Sfp PPTase inh: inhibitors of Bacillus subtilis Sfp phosphopantetheinyl transferase | Q9F4F7 | Biochemical Sfp PPTase activity, qHTS | Potency, µM, without a hit: max response, negative = inhibition, most hits filed as inhibitors | 310,000 tested, 3.5% active | AID 1490; active = well fitted inhibition curve with a large enough effect; inconclusive = small, poorly fitted or top-dose-only effect, or another doubt; inactive = no such curve, though single readings can be large or run the other way;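 note: the enzyme is Sfp with the accession as filed and its product quenches rhodamine fluorescence; potency is the fitted concentration of half-maximal effect; 0% = enzyme reaction without inhibitor and -100% = no enzyme wells; top concentration of the series not given in the record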
#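 Step 1, compound plus 15 nM Sfp-PPTase, 15 min, room temperature. Step 2, add rhodamine-CoA (5 uM) and BHQ-2-YbbR (12.5 uM). Step 3, read 525/598 nm fluorescence at 0 and 30 min.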
# TRPV1 potentiator: enhances activation of the human vanilloid receptor TRPV1; AID 540277; Q8NER1; potentiation, % at 8.33 µM; TRPV1-expressing cells, Fluo-8 calcium influx, capsaicin EC20 potentiation; host cell line not named in the record; control for the full effect not named in the record; 320,000 tested, 0.02% active; active means potentiation above 80%; inconclusive means 30% to 80%; inactive means below 30%; note: 0% is about no effect
# Target sequence (Q8NER1 whole entry, looked up): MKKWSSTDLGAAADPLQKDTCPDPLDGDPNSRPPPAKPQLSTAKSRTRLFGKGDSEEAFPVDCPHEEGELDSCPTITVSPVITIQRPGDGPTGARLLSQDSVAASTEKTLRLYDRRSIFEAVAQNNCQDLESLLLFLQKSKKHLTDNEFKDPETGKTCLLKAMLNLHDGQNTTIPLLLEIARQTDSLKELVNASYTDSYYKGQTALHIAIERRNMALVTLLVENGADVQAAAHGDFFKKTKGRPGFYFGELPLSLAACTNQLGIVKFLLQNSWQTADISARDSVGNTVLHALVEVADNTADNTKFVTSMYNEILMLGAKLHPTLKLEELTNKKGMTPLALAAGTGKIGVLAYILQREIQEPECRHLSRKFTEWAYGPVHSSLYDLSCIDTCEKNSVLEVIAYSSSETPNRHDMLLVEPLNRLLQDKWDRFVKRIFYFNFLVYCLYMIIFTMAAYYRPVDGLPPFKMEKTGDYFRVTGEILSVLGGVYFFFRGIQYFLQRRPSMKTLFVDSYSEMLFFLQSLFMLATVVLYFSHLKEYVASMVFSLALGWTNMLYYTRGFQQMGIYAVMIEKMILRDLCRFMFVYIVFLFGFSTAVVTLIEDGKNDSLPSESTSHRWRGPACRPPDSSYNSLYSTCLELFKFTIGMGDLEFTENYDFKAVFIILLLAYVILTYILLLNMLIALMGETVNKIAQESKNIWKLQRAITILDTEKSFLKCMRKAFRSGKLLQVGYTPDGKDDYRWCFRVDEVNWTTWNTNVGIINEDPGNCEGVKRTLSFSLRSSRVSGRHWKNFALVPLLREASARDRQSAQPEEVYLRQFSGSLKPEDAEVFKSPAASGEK
#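 TRPV1-expressing cells were cultured overnight at 35.5C and loaded with Fluo-8 calcium dye for 40 to 90 min at room temperature. After a 10 s baseline, compound was added and calcium influx was read kinetically for 3 min (ex 480/em 520 nm).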
# gsp antag: antagonizes gsp, the McCune-Albright syndrome mutation; gsp-mutant cells, cAMP HTRF, 30 min; control for the full effect not named in the record; Potency, µM (top dose mostly 76.9 µM), for the others: top-dose activity change, negative = inhibition, hits mostly inhibitors; 340,000 tested, 0.4% active; active = falling curve of any shape with a large fitted effect; inconclusive = falling curve, mostly with a smaller effect; inactive = flat or rising curve; cell line not stated here;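 note: intracellular cAMP measured with PDE inhibitor Ro 20-1724 present during compound exposure; potency is the fitted concentration of half-maximal effect; % is set by controls: 0 for no effect and ±100 for the full control effect; nearly all actives have a fitted effect of over 65% in size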
#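 Cells in G418 medium, seeded 16-24 h, 37C; buffer exchange to DPBS + 1 mM CaCl2, 0.5 mM MgCl2, 0.05% BSA; cpds in DMSO + […] (300 uM stock), 30 min 37C; HTRF cAMP detection.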
# TRPML1 inh: blocks the human TRPML1 channel; 390,000 tested, 0.02% active; activity change, negative = inhibition, % (test concentration not listed); Q9GZU1; TRPML1-inducible cells, Ca2+ dye fluorescence, FDSS; hits give low values; inhibition of EC80 agonist-evoked calcium signal; in the data active means activity change below about -50%; inconclusive means about -30% to -50%; inactive means above about -30%;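 note: stimulus is agonist 54-4 at its EC80 concentration; % is set by controls: 0 for no effect and ±100 for the full control effect; compound concentration not given in the record; the text of the record puts the active cut at -80%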
#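 Calcium fluorescence in TRPML1-DL cells induced overnight with Tet: a 110 s read after compound pin addition, then a 110 s antagonist read after challenge with 54-4 at 4 uM final (EC80).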
# Menin MLL FP FL: displaces fluorescein MLL peptide from human menin | Fluorescence polarization, fluorescein-MLL peptide displacement from menin | FP activity change, % at 61.4 µM | 290,000 tested, under 10 active; inconclusive = falling polarisation curve, or a change in total fluorescence; inactive = total fluorescence flat and polarisation flat or rising; no compound was filed as active; the % refers to the polarisation; negative = inhibition;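 note: % of control where 0% means no effect; inhibitors lower the polarisation; unlabelled MLL peptide was the positive control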
# gsp agonist: activates gsp, the McCune-Albright syndrome mutation. gsp mutant cells, cAMP HTRF, 30 min; control for the full effect not named in the record. AID 624287. Potency, µM (highest dose often 76.9 µM), for inactives: top-dose activation (cAMP increase), usual class: activators. 340,000 tested, 0.13% active; active = well fitted activation curve with a large enough effect; inconclusive = small, poorly fitted or top-dose-only effect, or another doubt; inactive = no such curve, though single readings can be large or run the other way; cell line not stated here;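 note: phosphodiesterase inhibitor Ro 20-1724 added with compounds to block cAMP breakdown; potency is the fitted concentration of half-maximal effect; nearly all actives have a fitted effect of over 60% in size; about a fifth of the inactives were tested at one dose only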
#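 Cells in DMEM/10% FBS with G418 were pretreated with compounds in DMSO plus […] (300 uM stock) for 30 min at 37C. cAMP was measured by HTRF (cAMP-d2 plus anti-cAMP antibody-K) after 30 min at room temperature.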
# ClpP mod: qHTS Assay for Activators of ClpP. ATP-dependent Clp protease proteolytic subunit (Bacillus subtilis (strain 168)), P80244. purified B. subtilis ClpP, FRET peptide cleavage, 20 min. Potency, µM (doses to about 57.5 µM), inactives show at the highest dose activity change, negative = active. 340,000 tested, 1.9% active. AID 651965, 2013; active = well fitted falling curve with a large enough effect; inconclusive = small, poorly fitted or top-dose-only effect; inactive = no such curve, though single readings can be large or run the other way; note: potency is the fitted concentration of half-maximal effect; the source files actives as falling curves though it sought activators and does not explain the sign; nearly all actives have a fitted effect of over 65% in size; many hits overshoot -100%
# Target sequence (P80244 whole entry, looked up): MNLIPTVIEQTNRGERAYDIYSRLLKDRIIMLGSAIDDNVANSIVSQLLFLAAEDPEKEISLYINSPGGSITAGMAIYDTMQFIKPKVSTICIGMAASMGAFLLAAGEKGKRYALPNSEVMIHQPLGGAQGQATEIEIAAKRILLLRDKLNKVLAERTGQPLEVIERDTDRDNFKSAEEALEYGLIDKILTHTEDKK
#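 Purified B. subtilis ClpP, 10 microg/mL final in Tris/HCl pH8 with KCl, BSA, glycerol and Tween-20, cleaved an Abz/nitrotyrosine-quenched decapeptide. Fluorescence (ex 320, em 430) was read at 0 and 20 min at room temperature. Delta was normalized to 5.8 microM ADEP and DMSO/no-enzyme controls.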
# * marks the source's active call; other numbers are inactive results; ? = inconclusive; nt = no result given; [ ] = another dose, or the depositor's remark.
SMILES,Sfp PPTase inh,TRPV1 potentiator,gsp antag,TRPML1 inh,Menin MLL FP FL,gsp agonist,ClpP mod
C/C(CC(=O)Nc1ccc(Cl)cc1Cl)=N\NC(N)=S,10%,-12,-5%,-8,0.4,?,-1.9%
CC(C)c1ccc(OCCCCCN2CCOCC2)cc1,?,-9,10%,40,0.6,-28%,-0.7%
Cc1c(N2C(=O)c3cccc4cccc(c34)C2=O)c(=O)n(-c2ccccc2)n1C,-4%,-13,11%,-16,1.0,?,-1.8%
Cc1ccc(-n2c(=S)[nH]c3nc4c(cc3c2=O)COC(C)(C)C4)cc1,26%,16,-3%,5,-4.6,-41%[inhibitor],1.9%
COc1ccc(C2CC(C(F)(F)F)n3ncc(C(=O)O)c3N2)cc1OC (stereo not drawn),-9%,-1,4%,3,-0.4,-2%,-1.1%
CCCN1CCN(C(=O)Cn2nc(C)n3c(cc4sccc43)c2=O)CC1,35%[activator],0,-19%,-7,-1.4,-2%,-24%
N#Cc1nc(-c2ccc(OCc3ccccc3)cc2)oc1NCCN1CCOCC1,-17%,7,nt,nt,2.6,nt,nt
C=CCCC1(C)C(=O)N(c2ccccc2)c2ccccc21 (stereo not drawn),-17%,-20,-6%,58,-1.7,-5%[15.4 µM],-3.0%
N#Cc1ccc(C2=CC(=O)C[C@H](c3ccc4c(c3)OCO4)C2)cc1,nt,-32,-1%,-1,nt,-4%,-0.5%
Cc1ccc(N2CCN(C(=O)Nc3cccc([N+](=O)[O-])c3)CC2C)cc1 (stereo not drawn),12%,1,nt,-5,1.5,-2%[15.4 µM],nt
Cc1nn2cc(-c3ccccc3)nc2[nH]c1=O,-2%,0,-4%,-11,-2.0,0%,-26%
COc1ccc(Cn2nnnc2C(c2ccccn2)N2CCN(c3cc(Cl)ccc3C)CC2)cc1 (stereo not drawn),2%,0,-6%,-14,2.4,-44%[inhibitor],-0.5%
COc1cccc(/C(C)=N/NC(=O)c2cc(-c3cccnc3)nc3ccccc23)c1,5%,4,-7%,17,0.0,-73%[inhibitor],-0.4%
Clc1ccccc1/C=C/c1nc(-c2ccccn2)no1,1%,-8,-12%,32,3.5,17%,nt
O=S(=O)(c1cccc2ccccc12)n1nnc2ccccc21,22%,-12,0%,-2,-0.1,-3%,-4.2%
CC(C)(C)OC(=O)N1CCCC(C(=O)Nc2cccc(C(=O)NCCCCc3ccccc3)c2)C1 (stereo not drawn),nt,nt,-22%,-6,nt,nt,-3.6%
C=C(C)CN(CC)C(=O)CCc1nnc(CCc2c[nH]c3ccccc23)o1,17%,-3,5%,-1,2.5,-11%[15.4 µM],nt
CCc1ccccc1-n1nnnc1-c1cnccc1C(F)(F)F,2%,6,0%,-6,2.1,29%,nt
CCOc1ccc(C(=O)CN2CCN(S(=O)(=O)c3ccc(Br)cc3)CC2)cc1,2%,0,-10%,12,-0.4,6%,0.3%
CCOC(=O)Cc1cnc(NC(=O)Cn2nnc(-c3ccc(OCC)cc3)n2)s1,12%,0,-3%,45,2.7,9%,22µM*
Cc1ccc(-n2c(N)c(C(=O)Nc3c(C)n(C)n(-c4ccccc4)c3=O)c3nc4ccccc4nc32)cc1C,?,7,nt,nt,2.4,nt,nt
CCc1cc2c(COC(=O)c3cccc(S(C)(=O)=O)c3)cc(=O)oc2cc1O,-6%,7,?,8,nt,?,nt
O=C(N/C(=C\c1ccco1)C(=O)N1CCC(O)CC1)c1ccccc1,10%,4,7%,0,-2.5,1%[15.4 µM],nt
CCn1c(=O)cc(OCC(=O)NCCc2cccc(C)c2)c2ccccc21,79µM*,24,-6%,5,-1.4,12%,nt
Cc1cc(-c2ccccc2)nc(SCc2ccc(C(=O)O)cc2)n1,8%,5,35µM*,17,-0.2,-33%[inhibitor],-2.5%
Cc1ccc(Cl)c(NC(=O)COC(=O)CNS(=O)(=O)/C=C/c2ccccc2)c1Cl,50µM*,-18,-1%,-18,1.5,-7%[15.4 µM],-2.0%
CCN(CC)CCCn1c2c(c(SCC(=O)Nc3cc(OC)cc(OC)c3)nc1=O)CCC2,nt,3,2%,4,nt,-17%,-2.1%
C[C@H](CO)N1C[C@H](C)[C@H](CN(C)C(=O)Nc2ccc3c(c2)OCO3)Oc2ncc(Br)cc2C1=O,nt,nt,nt,13,nt,42%,-1.6%
COc1cccc(/C=C2/SC(=S)N(CC(=O)NNC(=O)c3ccccc3OC)C2=O)c1,-19%,16,?,-7,4.8,-5%[15.4 µM],nt
CCOC(=O)C1CCN(C(=O)C2CCN(c3nn4c(=O)cc(C)nc4s3)CC2)CC1,17%,0,-9%,0,nt,?,-5.1%
O=S(=O)(c1ccc(S(=O)(=O)N2CCCC2)cc1)N1CCCCCC1,-14%,-4,3%,19,6.1,-45%[inhibitor],-2.9%
Cc1ccc(S(=O)(=O)N2CCN(C(=O)COC(=O)/C=C/c3ccccc3[N+](=O)[O-])CC2)c(C)c1,nt,14,-9%,-18,nt,-15%[15.4 µM],nt
COCCN(Cc1cccs1)S(=O)(=O)c1csc(C(N)=O)c1,19%,6,8%,-5,nt,14%,-0.4%
COc1ccc(CCNC(=O)COc2ccc(N(C)S(=O)(=O)c3ccc(Cl)cc3)cc2)cc1,24%,6,nt,-12,-0.9,-33%[15.4 µM],nt
Cn1c(=O)oc2cc(S(=O)(=O)Nc3cccc([N+](=O)[O-])c3)ccc21,10%,3,-4%,11,1.9,13%[15.4 µM],1.4%
COc1cccc(NC(=O)CN(c2ccc3c(c2)OCO3)S(C)(=O)=O)c1,12%,-6,8%,13,-0.7,34%[15.4 µM],nt
Cc1cc(=O)oc2c(C)c(OCC(=O)N3CCN(C(=O)C4COc5ccccc5O4)CC3)ccc12 (stereo not drawn),16%,11,-6%,2,nt,-32%[inhibitor],4.0%
Cc1ccc2c(c1)[C@@H]1CN(C)CC[C@@H]1N2S(=O)(=O)c1ccc(F)cc1,0%,1,-2%,-2,-0.1,0%,-0.9%
O=C1CCC(C(=O)N(CCO)Cc2ccccc2)CN1CCCN1CCOCC1 (stereo not drawn),10%,1,13%,-8,-0.8,?,-1.7%
CN(C1CCS(=O)(=O)C1)S(=O)(=O)c1ccc2ccccc2c1 (stereo not drawn),nt,-15,0%,26,nt,-2%[15.4 µM],nt
Cc1cccc(NC(=O)CN2CCSc3ccccc32)c1,1%,-2,11%,10,-3.2,?,0.7%
CC(=O)c1c(C)[nH]c(=S)c(C#N)c1-c1ccc(Cl)cc1,?,-9,-18%,12,6.3,-6%[15.4 µM],0.7%
COCC(=O)N(Cc1cc2ccc(C)cc2[nH]c1=O)c1ccccc1C,29%,-8,2%,3,2.2,-34%,nt
Cc1cc(C)nc(N/N=C/C2=C(N3CCOCC3)C(=C\c3ccc(Cl)cc3)/CC2)n1,-29%,-19,-10%,9,?,0%[15.4 µM],nt
CN(C)S(=O)(=O)c1ccc(Cl)c(C(=O)NC2CCCCCCC2)c1,3%,-16,-2%,67,2.4,6%[15.4 µM],nt
Cc1ccc(C(=O)Nc2cc3[nH]c(=O)oc3cc2C)cc1,8%,-19,-13%,22,-3.3,1%,-0.7%
Cc1ccc(N(CC(O)Cn2nc(C)cc2C)S(=O)(=O)c2ccc3ccccc3c2)cc1 (stereo not drawn),-2%,1,?,1,1.6,-21%,0.7%
Cc1nc(CNS(=O)(=O)c2ccccc2F)cs1,-6%,-5,6%,9,0.7,21%,-0.6%
Cc1cc(C=C2C(=O)c3ccccc3C2=O)c(C)n1C,-6%,-6,-11%,-21,-5.8,-28%,-1.6%
O=S(=O)(NCCN1CCCC1)c1ccc(Cl)cc1,0%,2,15%,-2,-1.6,4%,-0.9%
COC(=O)c1cc(Br)c(=O)n(-c2cccc(F)c2)c1,-9%,11,24%,-6,0.2,?,-1.2%
COc1ccc(N2CC(NC(=O)N3CCc4ccccc43)CC2=O)cc1OC (stereo not drawn),-21%,7,1%,-9,2.2,1%,nt
CN(C)S(=O)(=O)c1cccc(C(=O)Nc2ccc3c(c2)CCC3)c1,4%,-4,-10%,7,1.8,6%[15.4 µM],-0.4%
COc1ccc(NC(=O)CCc2c(C)nc3nc(C)nn3c2C)cc1,13%,14,9%,-8,0.7,2%,-4.6%
COC(=O)c1cccc(C(=O)N2CCCC(Nc3ccc(C)c(C)c3)C2)c1 (stereo not drawn),7%,-14,-15%,3,nt,-47%[inhibitor],-1.4%
CCOC(=O)c1sc(Nc2cccc(C)c2C)nc1C,-16%,-1,nt,nt,12,nt,nt
COc1n[nH]c(C(=O)NCc2ccccc2)c1[N+](=O)[O-],-5%,-3,-10%,-1,-1.3,8%,-0.2%
Nc1cccnc1S(=O)(=O)c1cccc(C(F)(F)F)c1,nt,nt,6%,14,nt,-2%[15.4 µM],nt
O=c1ccn(-c2cccc(C(F)(F)F)c2)nc1-c1ccn(-c2cccc(Cl)c2)n1,3%,1,5%,0,8.3,?,0.2%
COc1ccccc1CN1CC(C(=O)N(C)Cc2nc(C)cs2)CCC1=O (stereo not drawn),8%,13,-7%,2,nt,-35%,0.9%

# Further entries:
SMILES,Sfp PPTase inh,TRPV1 potentiator,gsp antag,TRPML1 inh,Menin MLL FP FL,gsp agonist,ClpP mod
CN1CCc2ccccc2C1Cc1ccccc1NC(=O)c1sc2ccccc2c1Cl (stereo not drawn),-8%,2,-5%,12,-8.5,-1%,0.6%
O=Nc1c(O)cc(O)c2ccccc12,nt,nt,nt,18,nt,-22%,2.7%
O=C(c1ccc(F)cc1)N1CCOC(c2nc(-c3ccc(F)cc3)no2)C1 (stereo not drawn),nt,-16,-13%,2,nt,nt,-1.8%
Oc1cccc2cnccc12,2%,11,8%,nt,-0.8,-17%,-1.1%
CCOC(=O)N1CCN(c2c(NCCCN3CCCC(C)C3)c(=O)c2=O)CC1 (stereo not drawn),24%,1,-7%,-1,0.0,?,-0.9%
O=C1CCc2cc(S(=O)(=O)NC(Cc3ccccc3)C(=O)N3CCN(c4ccccn4)CC3)ccc2N1 (stereo not drawn),7%,11,-4%,27,-3.0,-6%,?
